# Mtb H37Rv = M. tuberculosis H37Rv growth inhibitors, H37Rv strain (AID 1626) | M. tuberculosis H37Rv growth inhibition; higher % means a stronger effect | one-dose inhibition, % at 10 µM; IC50 in µM for titrated hits | 0.95% of 220,000 active;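 active means confirmed in a dose series; inconclusive means inhibition above 80% but not taken into the dose series; inactive means below 80% or under 30% at every dose of the series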;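 further: bacteria incubated seven days before Alamar blue readout; 0% = bacteria only wells and 100% = bacteria with antibiotic wells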
# RecA intein inh = Mtb RecA intein splicing inhibition; P9WHJ3; cell-free RecA intein splicing, fluorescence; inhibition, %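 (about 9 µM by stock and volumes)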; 0.75% of 290,000 active; AID 2221; in the data active means inhibition above about 30%; inconclusive means no clear call, values can overlap the other calls;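 further: 0% = vehicle wells and 100% = reference inhibitor control wells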
# Target sequence (P9WHJ3 whole entry, looked up): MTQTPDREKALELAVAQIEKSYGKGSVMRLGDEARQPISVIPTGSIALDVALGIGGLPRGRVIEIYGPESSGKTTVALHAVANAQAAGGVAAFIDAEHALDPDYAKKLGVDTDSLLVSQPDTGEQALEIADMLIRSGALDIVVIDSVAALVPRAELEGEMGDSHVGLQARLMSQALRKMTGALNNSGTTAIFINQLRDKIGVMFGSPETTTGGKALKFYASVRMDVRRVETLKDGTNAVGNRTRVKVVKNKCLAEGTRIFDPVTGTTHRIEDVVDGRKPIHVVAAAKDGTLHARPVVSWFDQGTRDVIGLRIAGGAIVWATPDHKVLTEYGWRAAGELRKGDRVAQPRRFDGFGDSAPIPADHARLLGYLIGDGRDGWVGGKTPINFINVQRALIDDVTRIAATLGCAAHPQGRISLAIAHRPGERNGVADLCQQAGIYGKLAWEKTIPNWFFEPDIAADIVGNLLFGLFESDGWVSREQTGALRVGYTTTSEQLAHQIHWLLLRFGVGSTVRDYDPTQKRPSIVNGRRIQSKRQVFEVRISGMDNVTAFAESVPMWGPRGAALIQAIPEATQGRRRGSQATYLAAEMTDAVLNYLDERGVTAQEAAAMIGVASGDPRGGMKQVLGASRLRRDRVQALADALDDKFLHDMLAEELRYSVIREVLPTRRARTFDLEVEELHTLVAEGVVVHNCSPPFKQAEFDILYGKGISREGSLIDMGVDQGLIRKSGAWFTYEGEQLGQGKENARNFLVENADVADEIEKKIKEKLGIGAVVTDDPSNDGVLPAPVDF
# Mtb betalactam = beta-lactam sensitization of Mtb H37Rv; M. tuberculosis H37Rv growth with meropenem, percent inhibition; hits of this screen are not shown here; inhibition, % at 25 µM; 0.27% of 330,000 active; AID 434955;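 active means about 74% or more and at least 40 points above the plate without the antibiotic, then above 30% in a dose series; inconclusive means first-round hits that could not be retested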;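 further: growth measured after seven days incubation then overnight dye step; 0% = bacteria only wells and 100% = bacteria with antibiotic; twin plates without the antibiotic show which effects depend on it; some results filed as inactive read as strong as hits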
# Arbovirus inh = antivirals against arbovirus infection. inhibition, % at 10 µM. arbovirus infection cell-based antiviral screen. 0.37% of 200,000 active;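 active means inhibition from about 30%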;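 further: bluetongue infection of BSR cells; cell survival read as ATP light after 72 h; 0% = infected wells without compound and 100% = uninfected wells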
# YopH inh = YopH (Yersinia) phosphatase inhibition | fluorescence Ex485/Em525 | inhibition, %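 (about 10 µM by stock and volumes)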 | 0.16% of 140,000 active | AID 898;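 active means inhibition of 50% or more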;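 further: controls were vehicle for no effect and minimum signal wells for full effect; inactives centre near -20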
# Arbovirus inh repeat = recorded beside Arbovirus inh, whose call it bears; inhibition, %; measured here: 10K subset replicate screen; many hits read low in the repeat;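 first of two repeat runs on a subset; 0% = infected and 100% = uninfected wells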
# * hit, by the source's call; ? = inconclusive; nt = not tested or not shown. Not all compounds are listed, so the mix of outcomes need not match the whole.
# Start of the listing, in advance, 3 compounds:
SMILES,Mtb H37Rv,RecA intein inh,Mtb betalactam,Arbovirus inh,YopH inh,others
COCCCNC(=O)c1c[nH]c2ccc(S(=O)(=O)N3CCC(C)CC3)cc2c1=O,2%,-2.4,5,5,nt,
O=C(O)c1ccccc1-n1cccc1C(=O)O,7%,0.6,-2,nt,nt,
Cc1ccc(CNC(=O)c2ccc(N(C)S(=O)(=O)c3ccccc3)cc2)cc1,nt,37*,0,nt,nt,

# This part in full, repeating the preview:
SMILES,Mtb H37Rv,RecA intein inh,Mtb betalactam,Arbovirus inh,YopH inh,others
COCCCNC(=O)c1c[nH]c2ccc(S(=O)(=O)N3CCC(C)CC3)cc2c1=O,2%,-2.4,5,5,nt,
O=C(O)c1ccccc1-n1cccc1C(=O)O,7%,0.6,-2,nt,nt,
Cc1ccc(CNC(=O)c2ccc(N(C)S(=O)(=O)c3ccccc3)cc2)cc1,nt,37*,0,nt,nt,
CCn1c(=NC(=O)CSC(C)=O)sc2cc(F)ccc21,-4%,12,1,-5,3,
O=C(CN1C(=O)C2CCCCC2C1=O)OCC(=O)c1ccc(Cl)s1 (stereo not drawn),-5%,1.8,-5,3,nt,
COc1ccc(CCN(C)C2CCCN(S(=O)(=O)c3ccc(C)cc3)C2)cc1OC (stereo not drawn),nt,0.2,-3,nt,nt,
COc1ccc(Nc2nc(N3CCCCC3)nc(N3CCCCC3)n2)c(OC)c1,-2%,0.6,?,nt,nt,
CCOc1ccccc1CNC(=O)Cn1nc(C)c2c(C)n(-c3ccc(C)cc3)nc2c1=O,nt,-0.4,0,nt,nt,
COc1cccc(/C=N/NC(=O)c2cccc3ccccc23)c1,nt,1.8,-1,nt,nt,
COc1cc(C)ccc1OCc1cc(C(=O)N(Cc2c(C)nn(C)c2C)C2CC2)no1,nt,-4.6,7,nt,nt,
CCN(CC)S(=O)(=O)c1cccc2cccnc12,-6%,-4.3,-4,-6,-14,
Cc1nc(-c2ccc(NC(=O)C3CC3)cc2)cs1,nt,3.2,43,nt,nt,
CC(=O)Nc1ccc(NC2(C)C(=O)c3ccccc3C2=O)cc1,-5%,-0.4,-1,-2,-6,Arbovirus inh repeat=2
CCC(C)Sc1nc2c(cnn2-c2ccc(C)c(C)c2)c(=O)[nH]1 (stereo not drawn),11%,-4.6,8,8,-16,Arbovirus inh repeat=3
Cc1ccc(C2=NOC(c3nnc(-c4ccccc4)o3)C2)cc1 (stereo not drawn),-2%,-0.3,5,nt,nt,
O=C(c1ccco1)N1CCN(C(=S)Nc2ccc(F)c(Cl)c2)CC1,nt,-1.0,-2,nt,nt,
O=C(Oc1ccc(Br)cc1C(=S)N1CCOCC1)c1ccc([N+](=O)[O-])cc1[N+](=O)[O-],nt,7.8,-1,nt,nt,
CCC(C)n1c(O)c(C=NCC2CCCO2)c(=O)[nH]c1=S (stereo not drawn),-5%,nt,1,nt,nt,
OCCNNC(=S)NC1CC2C=CC1C2 (stereo not drawn),-6%,2.2,-4,nt,nt,
O=C(Cn1c(CN2CCCCC2)nc2ccccc2c1=O)NC1CCCCC1,-7%,-0.2,-2,1,-1,Arbovirus inh repeat=2
COc1cccc2[nH]c3c(=O)n(CCN(C)C)cnc3c12,-3%,-0.9,-5,nt,nt,
O=C(COC(=O)COc1ccc2ccccc2c1)Nc1cc(C(F)(F)F)ccc1N1CCOCC1,0%,5.6,12,-3,-12,
Cc1cc(C)c2c(=O)[nH]c(SCC(=O)NCc3ccccc3)nc2n1,2%,-0.5,1,2,-39,
O=C(NC1CCCCCC1)C(=S)N1CCOCC1,-6%,-0.6,-9,1,nt,
c1ccc(CNC2=NCCCCC2)cc1,-4%,-3.1,2,-3,-28,

# Reprinted from the listing, three compounds:
SMILES,Mtb H37Rv,RecA intein inh,Mtb betalactam,Arbovirus inh,YopH inh,others
COCCCNC(=O)c1c[nH]c2ccc(S(=O)(=O)N3CCC(C)CC3)cc2c1=O,2%,-2.4,5,5,nt,
O=C(O)c1ccccc1-n1cccc1C(=O)O,7%,0.6,-2,nt,nt,
Cc1ccc(CNC(=O)c2ccc(N(C)S(=O)(=O)c3ccccc3)cc2)cc1,nt,37*,0,nt,nt,

# The list goes on.
SMILES,Mtb H37Rv,RecA intein inh,Mtb betalactam,Arbovirus inh,YopH inh,others
O=C1/C(=C/c2cccnc2)CC/C1=C\c1cccnc1,66%,3.7,-1,-6,nt,
CCNC(=O)CC1C(=O)N(c2ccc(C)cc2)C(=O)N1CCc1ccc(OC)c(OC)c1 (stereo not drawn),-7%,nt,-6,10,0,
CCOC(=O)N1CCC(NC(=O)CSCc2cnn(-c3ccccc3)c2-n2cccc2)CC1,2%,1.2,-7,11,-17,
Cc1cc(C)nc(Nc2n[nH]c(-c3ccccc3Br)n2)n1,8%,-0.9,-1,1,-60,
CCOc1ccccc1C(=O)Nc1ccc(NC(=O)c2ccccc2)cc1,nt,3.8,2,nt,nt,
COc1ccc(N2CCN(C(=O)Cc3ccc(-n4c(=O)[nH]c5ccccc5c4=O)cc3)CC2)cc1,-3%,-5.0,-6,2,-42,
Cc1cccc(C)c1NC(=O)CN(C)C(=O)c1ccccc1OCc1ccc(F)cc1,nt,0.0,-2,nt,nt,
CCOc1ccc2[nH]c(=S)[nH]c2c1,65%,0.4,86,-4,5,
COc1ccc(CNC(=O)Cc2ccc(OC)c(S(=O)(=O)N3CCOCC3)c2)cc1,8%,-0.7,7,1,-30,
CN(C)S(=O)(=O)c1ccc(/C(O)=C2/C(=O)C(=O)N(Cc3cccnc3)C2c2cccs2)cc1 (stereo not drawn),-4%,-1.2,1,9,nt,
Cc1nnc(N2CCCC(C(=O)NCc3ccc(OC(C)C)cc3)C2)c2nn(-c3ccccc3)c(C)c12 (stereo not drawn),nt,-0.8,82,nt,nt,
COc1ccc(/C(C)=N/OCC(=O)N=Nc2c(O)[nH]c3ccccc23)cc1,4%,0.0,-1,-10,-40,
COc1ccc(NC(=O)C2=CC(c3ccco3)=NS(=O)(=O)N2C)cc1,nt,1.1,-4,nt,nt,
Cc1ccc(NC(=O)c2ccccc2Cl)c(Cl)c1,7%,1.3,94,12,-16,
CCCc1ccc2oc(C(=O)N3CCN(C4CCS(=O)(=O)C4)CC3)c(C)c2c1 (stereo not drawn),nt,-8.8,-4,nt,nt,
Clc1ccc(Cn2ncc3c(NCc4ccco4)ncnc32)c(Cl)c1,7%,4.7,25,-16,-42,
CN(C)CCCOC(=O)c1sc2ccccc2c1Cl,-2%,0.0,25,10,nt,
COc1ccccc1CNC(=O)Cn1cnnn1,nt,-1.5,5,nt,nt,
CC(CNC(=O)C(C)C)NC(=O)C(C)C (stereo not drawn),4%,-0.9,-5,1,-9,
COCCOC(=O)C1=C(C)NC(=O)NC1/C=C/c1ccccc1 (stereo not drawn),2%,-2.4,4,-10,-25,
CC(C)CCN1C(=O)c2ccc(C(=O)NCc3ccco3)cc2C1=O,4%,7.3,3,4,-32,
O=C(O)c1n[nH]c2c1CCCC2,4%,2.7,-7,3,-29,
Cc1cccc(C)c1OC1(c2ccccc2)OC(=O)c2ccccc21 (stereo not drawn),-7%,25,2,-9,-14,
O=C(O)CN=C(NS(=O)(=O)c1ccc(Cl)cc1)c1ccccc1,-5%,1.4,-5,6,-27,
COc1cc(/C=C/C(=O)N2CCN(C(=O)/C=C/c3cc(OC)c(OC)c(OC)c3)CC2)cc(OC)c1OC,nt,4.0,4,nt,nt,
# More structures
SMILES,Mtb H37Rv,RecA intein inh,Mtb betalactam,Arbovirus inh,YopH inh,others
O=C(OCc1cccnc1)C1=Cc2ccccc2OC1,4%,8.5,-3,1,nt,
CCCC(=O)NNC(=O)CC(=O)Nc1ccccc1C(=O)O,0%,-2.5,16,nt,nt,
C/C(=N/NC(=O)c1ccoc1C)c1ccc(NC(=O)C2CCCC2)cc1,-5%,-2.8,2,-28,-1,
CC(=O)N1N=C(N)SC1c1cccc([N+](=O)[O-])c1 (stereo not drawn),-10%,-2.9,-4,2,-28,
C(=C\c1ccccc1)/C=N/Nc1nc2ccccc2[nH]1,?,1.3,87,1,-38,
CCNC(=O)n1cc(-n2cncn2)c(-c2ccccc2)n1,1%,-3.4,-3,-3,nt,
CC(c1cccs1)N(Cc1ccco1)C(=O)Nc1ccc(Cl)c(Cl)c1 (stereo not drawn),6%,1.6,-3,-26,-46,
Cc1ccc(CSCC(=O)NCCCN2CCOCC2)cc1,6%,-1.4,-2,4,nt,
CCOC(=O)c1sc(NC(=O)c2cccs2)nc1C,0%,nt,nt,-12,-27,
CC(=O)N/C(=C\c1ccc(F)cc1)C(=O)NC(C(=O)O)C(C)C (stereo not drawn),1%,2.3,4,8,nt,
COC1Cc2ccccc2N(C(N)=O)c2ccccc21 (stereo not drawn),nt,1.1,43,nt,nt,
COCCOC(=O)c1c(NC(=O)CNc2ccc(C)c(F)c2)sc(C(N)=O)c1C,-5%,1.0,-6,nt,nt,
Cc1cc(C(=O)NN)c2cc(Br)ccc2n1,2%,-3.0,11,-1,7,
CC(C)[C@H](NC(=O)[C@@H]1Cc2ccccc2CN1C(=O)OC(C)(C)C)C(=O)NC1CCCC1,nt,0.1,0,nt,nt,
Clc1ccc(Cn2ncc3c(NCc4ccccc4)ncnc32)c(Cl)c1,0%,1.8,0,-8,-21,
Cc1cccc(C(=O)NC(=S)Nc2ccc(N3CCOCC3)cc2)c1,7%,3.8,1,-16,-22,
COc1ccc(NC(=O)c2cnc3sccn3c2=O)cc1,-10%,2.6,-2,-4,-19,
NC(=O)C1CCN(C(=O)C2CCC(=O)N(Cc3ccc(Cl)cc3)C2)CC1 (stereo not drawn),nt,-0.5,-5,nt,nt,
CCC(=O)Nc1cccc(NC(=S)NC(=O)c2ccc(Cl)cc2)c1,10%,-0.6,6,-1,-14,
Cc1ccc(C(=O)NCC(=O)O)s1,3%,-6.1,-4,-1,nt,
O=C1C(=O)N(CCN2CCOCC2)C(c2ccccn2)/C1=C(/O)c1ccc(F)cc1 (stereo not drawn),-5%,4.6,-3,2,-38,
Cc1ccc(NC(=O)CN(C)C(=O)c2ccc(-n3cncn3)c([N+](=O)[O-])c2)cc1,nt,-3.5,-7,nt,nt,
CCn1c(SCc2nc3ccccc3[nH]2)nnc1-c1ccccc1OC,5%,3.4,4,0,-28,
CCC(C)NS(=O)(=O)c1ccc(NC(=O)C2CCN(C(=O)c3ccco3)CC2)cc1 (stereo not drawn),nt,0.8,3,nt,nt,
N#Cc1c(NC(=O)COC(=O)C2CC3C=CC2C3)oc(-c2ccccc2)c1-c1ccccc1 (stereo not drawn),5%,25,5,0,-15,Arbovirus inh repeat=-3
CCSc1cnn(-c2ccccc2)c(=O)c1SCC,3%,1.7,-2,8,-8,

# Three structures out of the list, sorted by length of the SMILES, rising.
SMILES,Mtb H37Rv,RecA intein inh,Mtb betalactam,Arbovirus inh,YopH inh,others
Cc1ccc(C(=O)NCC(=O)O)s1,3%,-6.1,-4,-1,nt,
Cc1cccc(C(=O)NC(=S)Nc2ccc(N3CCOCC3)cc2)c1,7%,3.8,1,-16,-22,
CC(C)[C@H](NC(=O)[C@@H]1Cc2ccccc2CN1C(=O)OC(C)(C)C)C(=O)NC1CCCC1,nt,0.1,0,nt,nt,

# Bioassay records from PubChem.
